Ecoli growth – blocks Escherichia coli growth | hit rate 0.21% among 330,000 | OD600, 23 h; active compounds read low | OD600 absorbance (test concentration not listed);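 active = OD600 absorbance below the run mean of sample wells minus 3.6 SD, in any replicate, cut at about 0.56 in these data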;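 note: stock transfer was 300 nL into about 60 µL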
RanGTP-Impb inh – disruptors of Ran-importin-beta complex formation – biochemical, FRET, CFP-Ran, YFP-importin-beta, homogeneous, primary screen; cell-free CFP-Ran/YFP-importin-beta FRET ratio; inhibition, % (no concentration beside the values); hit rate 1.1% among 300,000; AID 2216;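 active = most replicates above 15%; inconclusive = exactly half above 15%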;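 note: 0% = DMSO wells and 100% = Ran loaded with GDP instead of GTP; wells of about 40 µL received 100 nL stock; the first replicate is given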
Vif A3G – HIV-1 Vif–A3G interaction blockers – biochemical, TR-FRET, GST-Vif 1-94, biotin-A3G peptide, dose response retest, primary screen (AID 1117319); TR-FRET GST-Vif / biotin-A3G peptide binding; higher % means a stronger effect; test concentration not given here; strong numbers were not always called active; one-dose inhibition, %; IC50 in µM for titrated hits; hit rate 0.57% among 260,000;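 active = above the screen mean plus three standard deviations and confirmed in dose response; inconclusive = results disagree or hit not tested in dose response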;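 note: Vif residues 1-94 fused to GST binding biotinylated APOBEC3G peptide 110-148; 0% = full assay without inhibitor and 100% = GST in place of GST-Vif; retest series ran down from 100 µM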
HNF4A DNA FP – change in binding of human HNF4 alpha to DNA. hit rate 0.3% among 360,000. HNF4a-FITC DNA binding, fluorescence polarization, 1 h. activity change, % at 10 µM. P41235. AID 1224865; in the data active = activity change above about 30%, passing the limit was not always enough;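 note: controls were the assay level and a saturating level of protein; the project sought stronger binding though the title names inhibitors; some compounds called inactive have numbers as strong as hits; positive values seem to mean higher polarization but the record does not say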
Target sequence (P41235 whole entry, looked up): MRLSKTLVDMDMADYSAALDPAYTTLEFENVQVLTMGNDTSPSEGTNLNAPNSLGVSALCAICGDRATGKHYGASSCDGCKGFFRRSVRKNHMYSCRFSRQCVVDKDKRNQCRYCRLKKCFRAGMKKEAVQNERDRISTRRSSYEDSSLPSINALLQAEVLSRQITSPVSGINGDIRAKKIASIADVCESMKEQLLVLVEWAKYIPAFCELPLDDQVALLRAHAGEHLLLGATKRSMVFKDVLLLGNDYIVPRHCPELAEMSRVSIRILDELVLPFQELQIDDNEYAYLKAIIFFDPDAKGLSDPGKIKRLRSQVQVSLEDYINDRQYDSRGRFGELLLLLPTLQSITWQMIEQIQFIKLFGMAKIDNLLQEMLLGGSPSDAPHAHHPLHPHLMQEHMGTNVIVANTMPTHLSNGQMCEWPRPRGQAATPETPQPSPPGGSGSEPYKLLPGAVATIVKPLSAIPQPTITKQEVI
UCH37 inh – blocks the human deubiquitinase UCH37; purified proteasome/UCH37, Ub-AMC cleavage fluorescence; hit rate 0.33% among 330,000; inhibition, % (test concentration not listed); AID 588478;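 active = mean of two replicates above 20%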;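 note: 0% = compound-free wells with enzyme and 100% = wells lacking proteasome; stock transfer was 100 nL into about 20 µL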
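Assay system: Proteasome-bound UCH37. Buffer or medium: pH 7.4 Tris-HCl (50 mM) with ovalbumin, ATP-MgCl2, DTT. Incubation: 30 min preincubation with enzyme, 25 min cleavage at room temperature. Measured by: fluorescence, ex 355 nm, em 460 nm. Read-out basis: percent inhibition. Control set: wells without proteasome as full block, compound-free enzyme plus substrate as uninhibited.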
MLL AF4-AF9 inh – inhibitors of human MLL-AF4/AF9 interaction. P42568. AlphaScreen, biotin-AF4 peptide binding to FLAG-AF9. inhibition, % at 10 µM. hit rate 0.47% among 350,000;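 active = every replicate reaching a set inhibition limit, whatever the replicate mean, cut at about 25% in these data; inconclusive = mean inhibition reaches that limit but some replicates miss it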;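 note: 0% = plate neutral control median and 100% = total signal loss; the record names both 10 and 1 µM as test concentration; the first replicate is given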
FGF22 binding – shifts melting point of recombinant human FGF22; hit rate 1.5% among 340,000; recombinant FGF22 thermal shift, SYPRO orange fluorescence; percent of sucrose octasulfate shift, DMSO zero; calls only at 9.99 µM; Q9HCT0; AID 651658;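 active = melting point raised past a set limit in the mean and every replicate; inconclusive = no clear call; three in four hits are not shown here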
Target sequence (Q9HCT0 whole entry, looked up): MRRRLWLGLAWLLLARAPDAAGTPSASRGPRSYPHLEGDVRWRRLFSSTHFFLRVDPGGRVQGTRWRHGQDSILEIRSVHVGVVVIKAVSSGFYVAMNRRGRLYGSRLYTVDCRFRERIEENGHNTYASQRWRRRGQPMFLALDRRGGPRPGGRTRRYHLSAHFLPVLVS
* hit, by the source's call; i = inactive; ? = inconclusive; . = not tested or not shown.

SMILES	Ecoli growth	RanGTP-Impb inh	Vif A3G	HNF4A DNA FP	UCH37 inh	MLL AF4-AF9 inh	FGF22 binding
Cc1cccc(NC(NC(=O)c2cccnc2)C(Cl)(Cl)Cl)c1 (stereo unspecified)	0.74	8.8	-5%	3.6	1.0	.	.
CC1CCC(CN2C(Nc3ccccc3)=NC[C@@H]2Cc2ccccc2)CC1 (stereo partly specified)	.	.	.	-4.9	-1.4	.	i
CCc1ccc(C(O)c2ncc(-c3ccc4ccccc4c3)[nH]2)cc1 (stereo unspecified)	.	.	.	6.1	.	-4.6	i
CCOC(=O)C1CCCN(CCC(=O)Nc2ccc3c(c2)CCC3)C1 (stereo unspecified)	0.69	3.0	63%	-0.6	3.2	-24	i
COCCCNC(=O)C1c2ccccc2Oc2ccccc21	0.7	-0.3	.	-3.0	0.0	-0.5	i
Cc1cn(CC(=O)NCc2ccc3c(c2)OCO3)c(=O)[nH]c1=O	.	.	.	2.8	.	-1.5	i
O=C(COc1ccc(F)cc1Br)NCC1COc2ccccc2O1 (stereo unspecified)	0.68	.	.	-4.4	3.9	-2.3	i
CC(OC(=O)Cc1n[nH]c(=O)c2ccccc12)C(=O)Nc1ccc(F)cc1Cl (stereo unspecified)	0.68	5.0	-7%	-2.5	0.2	-9.5	i
Nc1nc(SCC(=O)c2ccc(Cl)cc2)c2ncn(C3OC(CO)C(O)C3O)c2n1 (stereo unspecified)	0.64	.	-10%	1.7	5.8	-1.0	i
COc1ccc(C2CC(c3ccc(Cl)cc3)=NN2C(=O)c2cccc([N+](=O)[O-])c2)cc1 (stereo unspecified)	0.77	4.2	17%	-1.2	7.9	7.7	i
C[C@]12CC(O)C3C(CCC4=CC(=O)CC[C@@]43C)C1CCC2c1csc(-c2ccccc2)n1 (stereo partly specified)	0.66	2.9	.	0.5	0.0	0.6	i
CC1CC(C)(C)CC(=O)C1C(=O)c1ccccc1 (stereo unspecified)	0.75	-1.9	.	2.1	-2.5	2.5	i
Cc1nc(NC(=O)c2cc3ccccc3o2)ccc1Br	0.63	1.9	-11%	-0.9	-3.3	-0.4	i
COc1ccc(C2=NN(c3nc(C(=O)O)cs3)C(O)(C(F)(F)F)C2)c(OC)c1 (stereo unspecified)	0.67	-1.0	-16%	-3.7	-269	-1.6	i
COC(=O)C1=CN(c2cccc(C)c2)C=C(C(=O)OC)C1c1cc(OC)c(O)c([N+](=O)[O-])c1	0.65	-3.7	7%	3.2	3.6	.	.
CCOc1ccccc1C(=O)N(C)CC(=O)Nc1ccc(OC)cc1	0.69	3.3	-3%	-2.7	2.0	-0.8	i
CCOC(=O)Nc1ccc2c(c1)N(C(=O)CCN(C)C)c1ccccc1CC2	0.67	1.0	2%	1.6	2.3	6.3	i
COC(=O)C1=C(C)NC(C)=C(C(=O)OC)C1c1ccc(NC(C)=O)cc1	0.71	0.1	-1%	3.9	-56	2.5	i
O=C(CCCc1ccccc1)Nc1cccc2c1CCCC2	0.82	-2.5	1%	-4.0	2.6	.	.
Cc1cccc(Cn2cnc3c(N)c(C)c(C)cc32)c1	0.66	1.3	2%	-2.1	4.2	5.3	i
CCCn1c(N)c(N(CCOC)C(=O)c2ccc([N+](=O)[O-])cc2Cl)c(=O)[nH]c1=O	0.73	1.6	.	-2.9	2.4	1.5	i
S=C(Nc1ccccc1)N1CCN(C(=S)Nc2ccccc2)CC1	0.72	?	1%	.	1.9	-1.8	.
CN(C)c1cccc(C(=O)NC2CCCCCC2)c1	0.7	-2.9	?	-1.2	-6.8	.	.
CC(=O)NC1=NN(C(C)=O)C(C)(CS(=O)(=O)c2ccc(C)c(C)c2)S1 (stereo unspecified)	0.71	-1.5	-3%	1.6	2.5	-0.5	i
CN(C)CCOC(=O)C12CC3CC(CC(C3)C1)C2	0.75	1.6	-1%	-1.5	0.0	.	.
O=S(=O)(Nc1cc(S(=O)(=O)N2CCOCC2)ccc1NCC1CCCO1)c1ccccc1 (stereo unspecified)	0.69	.	12%	3.0	0.6	-0.2	i
CC(C)(C)c1ccc(C(=O)N2CCN(C(=O)c3ccco3)CC2)cc1	0.68	-2.6	17%	0.2	-1.1	0.3	i
Cc1cc(C)cc(NC(=O)NC(C)C2CCCO2)c1 (stereo unspecified)	0.69	-0.5	?	1.6	4.2	-1.2	i
COc1ccc(C(C#N)=C2C=C(Cl)C(=NO)C=C2Cl)cc1	.	.	22%	2.4	.	3.9	i
CC(=O)Nc1ccc(C(=O)OCc2ccc(Br)cc2)cc1	0.73	-0.8	-6%	-2.2	6.1	-21	i
C=CCn1nc(-c2ccccc2)cc1C(=O)OCC	0.66	-1.9	.	3.5	0.9	-0.7	i
COc1ccc(N2CCN(C(=O)CN3C(=O)NC(C)(c4ccc5ccccc5c4)C3=O)CC2)cc1 (stereo unspecified)	0.68	.	0%	-1.8	2.6	7.9	i
COc1ccc(N2C(=O)CC(N3CCN(S(=O)(=O)c4c(C)cc(C)cc4C)CC3)C2=O)cc1 (stereo unspecified)	0.66	.	12%	2.4	3.5	2.6	i
COc1ccc(OC)c(NC(=O)C2CCCN(S(=O)(=O)c3cccc4nsnc34)C2)c1 (stereo unspecified)	0.73	1.8	-5%	4.3	3.2	.	.
O=C(Nc1nnc(-c2cccs2)o1)c1cccc(Oc2ccccc2)c1	0.73	.	4%	2.8	-3.3	6.2	i
COc1ccc(C(CNC(=O)CCNC(=O)c2ccc(Br)cc2)N2CCOCC2)cc1 (stereo unspecified)	.	0.1	.	3.7	.	-0.4	i

An excerpt from above in order of length of the SMILES, descending:
SMILES	Ecoli growth	RanGTP-Impb inh	Vif A3G	HNF4A DNA FP	UCH37 inh	MLL AF4-AF9 inh	FGF22 binding
CCCn1c(N)c(N(CCOC)C(=O)c2ccc([N+](=O)[O-])cc2Cl)c(=O)[nH]c1=O	0.73	1.6	.	-2.9	2.4	1.5	i
COc1ccc(N2CCN(C(=O)CN3C(=O)NC(C)(c4ccc5ccccc5c4)C3=O)CC2)cc1 (stereo unspecified)	0.68	.	0%	-1.8	2.6	7.9	i
COc1ccc(OC)c(NC(=O)C2CCCN(S(=O)(=O)c3cccc4nsnc34)C2)c1 (stereo unspecified)	0.73	1.8	-5%	4.3	3.2	.	.
CC(=O)NC1=NN(C(C)=O)C(C)(CS(=O)(=O)c2ccc(C)c(C)c2)S1 (stereo unspecified)	0.71	-1.5	-3%	1.6	2.5	-0.5	i
COc1ccc(C(CNC(=O)CCNC(=O)c2ccc(Br)cc2)N2CCOCC2)cc1 (stereo unspecified)	.	0.1	.	3.7	.	-0.4	i
CC(C)(C)c1ccc(C(=O)N2CCN(C(=O)c3ccco3)CC2)cc1	0.68	-2.6	17%	0.2	-1.1	0.3	i
O=C(Nc1nnc(-c2cccs2)o1)c1cccc(Oc2ccccc2)c1	0.73	.	4%	2.8	-3.3	6.2	i
COc1ccc(C(C#N)=C2C=C(Cl)C(=NO)C=C2Cl)cc1	.	.	22%	2.4	.	3.9	i
S=C(Nc1ccccc1)N1CCN(C(=S)Nc2ccccc2)CC1	0.72	?	1%	.	1.9	-1.8	.
CC(=O)Nc1ccc(C(=O)OCc2ccc(Br)cc2)cc1	0.73	-0.8	-6%	-2.2	6.1	-21	i
Cc1cccc(Cn2cnc3c(N)c(C)c(C)cc32)c1	0.66	1.3	2%	-2.1	4.2	5.3	i
CN(C)CCOC(=O)C12CC3CC(CC(C3)C1)C2	0.75	1.6	-1%	-1.5	0.0	.	.
Cc1cc(C)cc(NC(=O)NC(C)C2CCCO2)c1 (stereo unspecified)	0.69	-0.5	?	1.6	4.2	-1.2	i
O=C(CCCc1ccccc1)Nc1cccc2c1CCCC2	0.82	-2.5	1%	-4.0	2.6	.	.
CN(C)c1cccc(C(=O)NC2CCCCCC2)c1	0.7	-2.9	?	-1.2	-6.8	.	.

Compound activity: PubChem BioAssay, several laboratories

This is a subset; the hit share may differ from the screen's.
